Source: PubChem BioAssay
NOMO-1 viab: STK33 inhibitor candidate reducing NOMO-1 cell viability. NOMO-1 AML viability, CellTiter-Glo luminescence, 72 h. inhibition, % (no concentration beside the values). 37,000 compounds, 7.5% hits;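 active means most replicates above 80%; inconclusive means exactly half above 80%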;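 further: wells of about 30 µL received 25 nL stock; 0% = median of vehicle wells and 100% = reference inhibitor level; the first replicate is given; inactives centre near 10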
An asterisk follows results filed as active; ? = inconclusive. Only part of the results is shown, so the mix of outcomes need not match the whole.

Start of the data: the first three compounds (preview)
SMILES	NOMO-1 viab
C[C@@H]1CN([C@@H](C)CO)C(=O)Cc2cc(NC(=O)Nc3cccc4ccccc34)ccc2O[C@@H]1CN(C)C(=O)Nc1ccc2c(c1)OCO2	9
C[C@H](CO)N1C[C@H](C)[C@@H](CN(C)S(=O)(=O)c2ccc(F)cc2)Oc2ccc(N(C)C)cc2C1=O	-8
C[C@H]1CN([C@@H](C)CO)C(=O)Cc2cc(N(C)C)ccc2O[C@@H]1CN(C)Cc1ccncc1	-14

Main list, from the first entry:
SMILES	NOMO-1 viab
C[C@@H]1CN([C@@H](C)CO)C(=O)Cc2cc(NC(=O)Nc3cccc4ccccc34)ccc2O[C@@H]1CN(C)C(=O)Nc1ccc2c(c1)OCO2	9
C[C@H](CO)N1C[C@H](C)[C@@H](CN(C)S(=O)(=O)c2ccc(F)cc2)Oc2ccc(N(C)C)cc2C1=O	-8
C[C@H]1CN([C@@H](C)CO)C(=O)Cc2cc(N(C)C)ccc2O[C@@H]1CN(C)Cc1ccncc1	-14
C[C@H]1CN([C@@H](C)CO)C(=O)c2cc(NS(=O)(=O)c3cccs3)ccc2O[C@H]1CN(C)Cc1ccccc1	30
COc1ccc(S(=O)(=O)N(C)C[C@@H]2Oc3c(NC(=O)c4cc(C)nn4C)cccc3C(=O)N([C@H](C)CO)C[C@H]2C)cc1	-6
COc1ccc(C(=O)CSc2nc(SC)ns2)cc1OC	-1
COC(=O)c1ccc(C(=O)OC)c(NC(=O)CCC(=O)O)c1	17
COc1cc2oc(-c3ccc(O)cc3)cc(=O)c2c(O)c1OC	42
O=S(=O)(NCc1ccco1)c1ccc(Oc2ccccc2)cc1	-2
Cc1noc(C)c1S(=O)(=O)Nc1ccc2c(c1)CC(=O)N([C@@H](C)CO)C[C@H](C)[C@H](CN(C)Cc1ccc(Cl)c(Cl)c1)O2	?
C=CCSc1nc2c(c(-c3ccc(C)o3)c1C#N)CCCC2	6
C[n+]1cc(C(=O)NCCC[N+]2(C)CCCC2)ccc1/C=N/O	34
CNC[C@@H]1OCCCC[C@@H](C)Oc2ccc(NS(=O)(=O)c3c(C)noc3C)cc2C(=O)N([C@H](C)CO)C[C@@H]1C	30
Cc1cccc(NC(=O)CN(C)S(=O)(=O)c2ccc3ccccc3c2)c1C	11
CC1(C)Cc2c(c(N3CCOCC3)nc3sc4c(NCCN5CCOCC5)ncnc4c23)CS1	24
C[C@H](CO)N1C[C@H](C)[C@@H](CN(C)Cc2ccc(Oc3ccccc3)cc2)Oc2c(NC(=O)Nc3ccccc3)cccc2C1=O	85*
CCCCOC(=O)c1cc2c(cn1)[nH]c1ccccc12	44
C[C@H]1CN([C@@H](C)CO)C(=O)c2cccc(NS(=O)(=O)c3ccc(Cl)cc3)c2O[C@H]1CN(C)C(=O)Nc1ccc2c(c1)OCO2	12
C[C@@H]1CN([C@H](C)CO)C(=O)c2cc(N(C)C)ccc2O[C@H]1CN(C)C(=O)Nc1ccc(F)cc1	11
C=CCN1C(C(=O)c2ccccc2)=C(OC(=O)c2ccccc2)c2ccccc2S1(=O)=O	108*
Cc1ccc(S(C)(=O)=NC(=O)NC(=O)c2c(Cl)cccc2Cl)cc1 (configuration not stated)	-9
C=C1C(=O)O[C@H]2[C@H]1[C@@H](OC(=O)/C(C)=C\C)C[C@]1(C)O[C@@H]1[C@H]1O[C@H]1C(=C)[C@H]2O	121*
C[C@@H]1CN([C@H](C)CO)C(=O)c2cccc(NC(=O)Nc3ccccc3)c2O[C@H]1CN(C)Cc1ccc2c(c1)OCO2	67
COc1ccc(NC(=O)CN2C(=O)c3cccc4cccc2c34)cc1OC	22
CC(C)NC(=O)Nc1ccc2c(c1)C(=O)N([C@@H](C)CO)C[C@@H](C)[C@@H](CN(C)Cc1ccc(C(F)(F)F)cc1)O2	12
C[C@H]1CN([C@@H](C)CO)C(=O)c2cccc(NC(=O)C3CCCCC3)c2O[C@H]1CN(C)C(=O)Nc1ccc(C(F)(F)F)cc1	?
C[C@@H]1CN([C@H](C)CO)C(=O)c2cccc(NC(=O)c3cnccn3)c2O[C@H]1CN(C)C(=O)Nc1ccccc1	20
Cc1noc(C)c1S(=O)(=O)N(C)C[C@@H]1Oc2ccc(NS(=O)(=O)c3cn(C)cn3)cc2CC(=O)N([C@H](C)CO)C[C@@H]1C	-7
CC(=O)Nc1cccc(OCC(=O)N(C)c2ccccc2)c1	4
CN(CC(=O)Nc1ccc(C(N)=O)cc1)S(=O)(=O)c1ccc(F)cc1	18
N#Cc1c(C(F)(F)F)cc(-c2ccc(Br)cc2)nc1SCCC(=O)O	11
C[C@@H]1CN([C@H](C)CO)C(=O)Cc2cc(NC(=O)C3CC3)ccc2O[C@H]1CN(C)S(=O)(=O)c1cccs1	-9
Cc1ccc2nc(-c3ccccn3)cc(C(=O)NCc3ccccn3)c2c1	19
C[C@H]1CN([C@@H](C)CO)C(=O)Cc2cc(NC(=O)Cn3cnnn3)ccc2O[C@H]1CN(C)Cc1ccc(Oc2ccccc2)cc1	23
C[C@@H]1CN([C@H](C)CO)C(=O)c2cc(NS(=O)(=O)c3cn(C)cn3)ccc2O[C@H]1CN(C)Cc1ccc(Cl)c(Cl)c1	23
COc1ccc(S(=O)(=O)N(C)C[C@@H]2Oc3ccc(NC(=O)NC(C)C)cc3CC(=O)N([C@@H](C)CO)C[C@@H]2C)cc1	-3
O=C(CC(=O)c1ccccc1O)c1ccccc1	42
OCCNc1nc(Nc2ccc(Cl)cc2)nc(N2CCCCC2)n1	17
C[C@H](CO)N1C[C@H](C)[C@@H](CN(C)S(=O)(=O)c2cn(C)cn2)Oc2c(NS(=O)(=O)c3ccc(Cl)cc3)cccc2C1=O	5
O=C(Cn1cnc([N+](=O)[O-])n1)Nc1cccc2ccccc12	-17

By substructure: the entries above with a cyano group.
SMILES	NOMO-1 viab
C=CCSc1nc2c(c(-c3ccc(C)o3)c1C#N)CCCC2	6
N#Cc1c(C(F)(F)F)cc(-c2ccc(Br)cc2)nc1SCCC(=O)O	11

Continuation:
SMILES	NOMO-1 viab
Cc1ccc(S(=O)(=O)Nc2cccc3c2O[C@H](CN(C)C(=O)NC2CCCCC2)[C@@H](C)CN([C@H](C)CO)C3=O)cc1	6
Cc1ccc(S(=O)(=O)Nc2ccc3c(c2)C(=O)N([C@H](C)CO)C[C@H](C)[C@@H](CN(C)Cc2ccc(Cl)c(Cl)c2)OCCCC[C@@H](C)O3)cc1	66
CN1C(=O)C(C(=O)NC(C)(C)C)C2CC1(C)Oc1ccccc12 (configuration not stated)	-4
Cc1nn(C(C)(C)C)c(NC(=O)c2ccccc2)c1C#N	7
C[C@H]1CN([C@@H](C)CO)C(=O)c2cc(NS(=O)(=O)c3cccs3)ccc2O[C@@H]1CN(C)C(=O)Nc1ccccc1	4
COc1ccc(NC(=O)COc2ccc(Br)cc2Cl)c([N+](=O)[O-])c1	12
C[C@@H]1CN([C@H](C)CO)C(=O)Cc2cc(NC(=O)CCC(F)(F)F)ccc2O[C@H]1CN(C)C	10
C[C@@H]1CN([C@@H](C)CO)C(=O)c2cccc(NS(=O)(=O)c3cn(C)cn3)c2O[C@H]1CN(C)C(=O)NC1CCCCC1	28
COc1ccccc1NC(=O)c1cccc(S(=O)(=O)N2CCCC2)c1	-8
C[C@@H]1CN([C@@H](C)CO)C(=O)c2cc(NC(=O)c3ccncc3)ccc2O[C@@H]1CN(C)C(=O)Nc1ccc2c(c1)OCO2	12
C[C@@H]1CN([C@H](C)CO)C(=O)Cc2cc(NC(=O)Cc3ccccc3)ccc2O[C@H]1CN(C)C(=O)Nc1ccccc1	-4
Cc1ccc(S(=O)(=O)N(C)C[C@H]2Oc3ccc(NC(=O)CCC(F)(F)F)cc3C(=O)N([C@@H](C)CO)C[C@@H]2C)cc1	22
Cc1ccccc1-c1nc2cc(NC(=O)COc3ccc(Cl)cc3)ccc2o1	19
COc1ccc(S(=O)(=O)Nc2ccc3c(c2)C(=O)N([C@@H](C)CO)C[C@H](C)[C@H](CN(C)C)O3)cc1	7
O=C(COc1ccc(Br)cc1CO)Nc1ccc(F)cc1	22
COc1ccc(S(=O)(=O)Nc2ccc3c(c2)C(=O)N([C@H](C)CO)C[C@H](C)[C@H](CN(C)S(=O)(=O)c2cccs2)O3)cc1	16
Cc1ccc(S(=O)(=O)N(C)C[C@H]2Oc3ccc(NS(=O)(=O)c4c(C)noc4C)cc3CC(=O)N([C@@H](C)CO)C[C@H]2C)cc1	48
Cc1ccc(S(=O)(=O)N(C)C[C@H]2Oc3ccc(NC(=O)Cc4ccccc4)cc3C(=O)N([C@@H](C)CO)C[C@@H]2C)cc1	11
C[C@H](CO)N1C[C@H](C)[C@H](CN(C)Cc2ccc(Cl)c(Cl)c2)Oc2ccc(NS(=O)(=O)c3ccc(Cl)cc3)cc2C1=O	60
COc1cc(Cl)c(C(Nc2ccccn2)c2cc(Cl)c3cccnc3c2O)cc1OC (configuration not stated)	110*

A second format for 4 compounds above.
> C[C@H]1CN([C@@H](C)CO)C(=O)Cc2cc(NC(=O)Cn3cnnn3)ccc2O[C@H]1CN(C)Cc1ccc(Oc2ccccc2)cc1
  NOMO-1 viab: 23
> C[C@@H]1CN([C@H](C)CO)C(=O)c2cc(NS(=O)(=O)c3cn(C)cn3)ccc2O[C@H]1CN(C)Cc1ccc(Cl)c(Cl)c1
  NOMO-1 viab: 23
> COc1ccc(S(=O)(=O)N(C)C[C@@H]2Oc3ccc(NC(=O)NC(C)C)cc3CC(=O)N([C@@H](C)CO)C[C@@H]2C)cc1
  NOMO-1 viab: -3
> O=C(CC(=O)c1ccccc1O)c1ccccc1
  NOMO-1 viab: 42

Later entries.
SMILES	NOMO-1 viab
Cc1c(C(=O)Nc2ccccc2)sc2ncn(CC(=O)Nc3ccccc3C(F)(F)F)c(=O)c12	9
C[C@H](CO)N1C[C@H](C)[C@@H](CN(C)Cc2ccc(C(=O)O)cc2)Oc2ccc(NC(=O)Nc3ccc4c(c3)OCO4)cc2C1=O	17
COc1ccccc1Nc1nc(N)nc(CSCCO)n1	13
COc1ccc(NC(=O)Nc2ccc3c(c2)CC(=O)N([C@H](C)CO)C[C@H](C)[C@H](CN(C)Cc2ccc(Oc4ccccc4)cc2)O3)cc1	?
C[C@H]1CN([C@@H](C)CO)C(=O)Cc2cc(NS(=O)(=O)c3cn(C)cn3)ccc2O[C@H]1CN(C)Cc1ccc(-c2ccccc2)cc1	51
CCN(CC(=O)Nc1ccc2c(c1)OCCO2)S(=O)(=O)c1ccc(Cl)cc1	22
Cc1c(C)c(C)c(C(=O)/C=N/N)c(C)c1C	2
CC(C)NC(=O)N(C)C[C@@H]1Oc2ccc(NC(=O)NC3CCCCC3)cc2CC(=O)N([C@H](C)CO)C[C@@H]1C	-3
O=C(Nc1ccc(OCc2ccccc2)cc1)OCC1CN(Cc2ccccc2)CCO1 (configuration not stated)	113*
CCC(=O)Nc1cccc(NC(=O)COc2ccc(Br)cc2)c1	22
CCn1c(SCC(=O)c2ccc(OC)cc2)nnc1-c1ccccc1F	30
COc1ccc([N+](=O)[O-])cc1NC(=O)C(C)Oc1ccccc1C (configuration not stated)	21
CC(C)CC(NC(=O)c1ccco1)C(=O)Nc1ccc2c(c1)OCCO2 (configuration not stated)	-21
COc1ccc(OC)c(N(CC(=O)Nc2c(F)cccc2F)S(C)(=O)=O)c1	-1
Cc1ccc(N(C(C)C(=O)O)S(C)(=O)=O)cc1 (configuration not stated)	-6
C[C@@H]1CN([C@H](C)CO)C(=O)Cc2cc(NS(=O)(=O)c3ccccc3)ccc2O[C@@H]1CN(C)Cc1ccc(-c2ccccc2)cc1	104*
COc1ccc(NC(=O)N(C)C[C@@H]2Oc3ccc(NS(=O)(=O)c4cccs4)cc3CC(=O)N([C@H](C)CO)C[C@@H]2C)cc1	15
CC1=C(C(=O)c2ccccc2)C(NC(=O)c2ccncc2)(C(F)(F)F)C(=O)N1Cc1ccccc1 (configuration not stated)	15
C[C@H]1CN([C@@H](C)CO)C(=O)c2cccc(NC(=O)Nc3ccc(F)cc3)c2O[C@H]1CN(C)Cc1ccc(C(=O)Nc2ccccc2N)cc1	127*
C[C@H]1CN([C@@H](C)CO)C(=O)c2cc(NC(=O)Nc3ccc(F)cc3)ccc2O[C@@H]1CN(C)Cc1ccc(Oc2ccccc2)cc1	-17
CC(=O)Nc1cccc(NC(=O)c2cc(-c3cccnc3)nc3ccc(Cl)cc23)c1	56
C[C@H]1CN([C@@H](C)CO)C(=O)Cc2cc(NC(=O)C3CC3)ccc2O[C@@H]1CN(C)Cc1ccc(C(F)(F)F)cc1	37
C[C@@H]1CN([C@@H](C)CO)C(=O)c2cc(NS(=O)(=O)c3ccc(F)cc3)ccc2O[C@H]1CN(C)C(=O)NC1CCCCC1	0
C[C@H]1CN([C@@H](C)CO)C(=O)c2cc(NC(=O)C3CCCCC3)ccc2O[C@H]1CN(C)Cc1ccc(C(F)(F)F)cc1	25
C[C@@H]1CCCCO[C@@H](CN(C)C(=O)CCC(F)(F)F)[C@@H](C)CN([C@H](C)CO)C(=O)c2cc(NC(=O)CCCCCC(=O)Nc3ccccc3N)ccc2O1	8
C[C@@H]1CN([C@H](C)CO)C(=O)Cc2cc(NC(=O)Nc3ccc(C(F)(F)F)cc3)ccc2O[C@@H]1CN(C)C(=O)Nc1ccc2c(c1)OCO2	113*
Cc1ccc(S(=O)(=O)N(C)Cc2nc(-c3ccc([N+](=O)[O-])cc3)no2)cc1	8
COc1ccc(S(=O)(=O)Nc2cccc3c2O[C@H](CN(C)C(=O)Nc2ccc(F)cc2)[C@H](C)CN([C@H](C)CO)C3=O)cc1	15
C[C@@H]1CN([C@H](C)CO)C(=O)c2cc(NC(=O)NC3CCCCC3)ccc2O[C@H]1CN(C)C	14
C[C@@H]1CN([C@@H](C)CO)C(=O)c2cccc(NC(=O)Nc3ccc4c(c3)OCO4)c2O[C@H]1CN(C)C(=O)Nc1ccccc1	0
Cc1cccc(NC(=O)CCS(=O)(=O)c2ccccc2)c1	-14
C[C@@H]1CN([C@H](C)CO)C(=O)c2cc(NC(=O)Nc3cccc4ccccc34)ccc2O[C@@H]1CN(C)C(=O)Nc1ccc2c(c1)OCO2	20
Cc1ccc(-c2nc(-c3ccc(Cl)cc3)cs2)cc1F	-13
